PABP polyA inh: blocks human PABP binding to poly(A) RNA. P11940. fluorescence polarization. inhibition, % at 35 µM. hit rate 1% among 290,000. AID 2014;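 active means 50% or more with normal probe brightness, or confirmed in later tests; inconclusive means above 50% with abnormal brightness, or retests that disagree; inactive means below 50% or failed in later tests; about a fifth of its hits are not listed in these tables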;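 further: calls also rest on retests at 20 µM and on dose response follow-up; controls were probe without protein and protein plus probe with vehicle; some compounds called inactive have numbers as strong as hits; many hits fall short of the cut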
Target sequence (P11940 whole entry, looked up): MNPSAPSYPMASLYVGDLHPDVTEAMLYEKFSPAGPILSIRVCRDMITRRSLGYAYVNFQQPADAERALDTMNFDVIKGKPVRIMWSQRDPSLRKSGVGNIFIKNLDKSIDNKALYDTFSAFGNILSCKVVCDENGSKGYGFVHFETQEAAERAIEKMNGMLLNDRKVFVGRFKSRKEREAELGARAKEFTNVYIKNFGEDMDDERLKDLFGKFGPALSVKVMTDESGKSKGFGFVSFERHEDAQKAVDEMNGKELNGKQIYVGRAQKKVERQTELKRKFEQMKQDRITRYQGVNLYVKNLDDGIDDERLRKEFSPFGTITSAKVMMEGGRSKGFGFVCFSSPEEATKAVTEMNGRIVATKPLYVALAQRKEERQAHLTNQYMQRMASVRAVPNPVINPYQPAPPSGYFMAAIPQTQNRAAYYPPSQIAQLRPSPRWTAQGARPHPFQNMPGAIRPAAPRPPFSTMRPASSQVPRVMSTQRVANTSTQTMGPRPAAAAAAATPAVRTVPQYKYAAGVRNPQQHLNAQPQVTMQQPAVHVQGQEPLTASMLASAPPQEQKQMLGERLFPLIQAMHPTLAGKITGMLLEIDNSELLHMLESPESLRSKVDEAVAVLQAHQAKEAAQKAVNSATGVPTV
CSC inhib: cancer stem cell inhibition; cancer stem cell-like cells viability, luminescence; inhibition, % at 7.5 µM; hit rate 1.1% among 300,000;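 active means mean at 75% or more and at least half the replicates too; inconclusive means mean and replicates disagree; tested in HMLE shEcad cells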;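 further: 0% = median of negative and 100% = median of positive control wells; the first replicate is given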
MT1-MMP act inh: MT1-MMP (human) activation inhibition; HT1080 RFP-PRO-GFP cells, GFP/RFP ratio fluorescence, overnight; percent of plate control window, DMSO zero; GFP/RFP ratio change, % at 20 µM; hit rate 0.061% among 360,000; AID 651647;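 active means GFP/RFP ratio change of at least 30% with cell ATP level not reduced by more than half and red fluorescence within 50% of control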; further: strong numbers were not always called active
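Compound: 20 µM single dose, 1% DMSO / System: HT1080 RFP-PRO-GFP cells / Controls: DMSO and RFP-L50D-GFP cell wells / Read-out basis: GFP/RFP fluorescence ratio / Schedule: overnight compound exposure at 37 °C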
eIF4H inh: inhibitors of RNA binding by human eIF4H. Q15056. eIF4H fluorescence polarization binding assay. inhibition, % at 35 µM. hit rate 0.94% among 290,000. AID 2012;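 active means 50% or more with normal probe brightness, or confirmed in later tests; inconclusive means above 50% with abnormal brightness, or retests that disagree; inactive means below 50% or failed in later tests; about a fifth of its hits are not listed in these tables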;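 further: calls also rest on retests at 20 µM and on dose response follow-up; 0% = protein and probe with vehicle and 100% = probe without protein; strong numbers were not always called active; many hits fall short of the cut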
Yeast UUG start: yeast start codon fidelity modulation. activity score, % at 18.7 µM. S. cerevisiae UUG-firefly luciferase reporter, luminescence/redox ratio. hit rate 0.13% among 350,000;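 active means replicate mean at a twofold rise or more, about +100% in these data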;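 further: firefly luciferase made from a UUG start codon reports start codon fidelity; reporter light over untreated wells divided by growth signal over untreated wells; some hits fall short of that in this replicate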
Rce1 inh: blocks yeast Ras-converting enzyme; yeast membranes, quenched prenylated peptide cleavage fluorescence; calls only; hit rate 0.27% among 290,000;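 active means fall in fluorescence gain of 50% or more versus controls, with final raw signal at or below 3038400; inconclusive means same 50% fall but final raw signal above 3038400; inactive means fall in fluorescence gain under 50%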;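 further: plate controls were neutral control wells for no effect and wells lacking membranes for full effect; tested at 10 µM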
Target sequence (Q03530 whole entry, looked up): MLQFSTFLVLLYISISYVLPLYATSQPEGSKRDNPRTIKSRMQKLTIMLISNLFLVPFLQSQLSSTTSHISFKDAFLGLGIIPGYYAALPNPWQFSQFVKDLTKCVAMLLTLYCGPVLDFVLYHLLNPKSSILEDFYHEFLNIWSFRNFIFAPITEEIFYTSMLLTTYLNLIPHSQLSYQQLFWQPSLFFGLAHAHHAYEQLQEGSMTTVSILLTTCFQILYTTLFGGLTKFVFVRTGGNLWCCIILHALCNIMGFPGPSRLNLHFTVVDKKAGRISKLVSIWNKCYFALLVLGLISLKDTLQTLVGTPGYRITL
HIV Env fusion: HIV envelope-mediated fusion inhibition. HeLa-JRFL Env/CEM21 cell fusion, luciferase. inhibition, % at 12.3 µM. hit rate 1.1% among 360,000;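 active means mean replicate inhibition score of at least 50 and every replicate individually at or above 50; inconclusive means only one of the two criteria met; inactive means mean below 50 and not all replicates reaching 50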;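 further: 0% = plate neutral controls and 100% = maraviroc near 300 nM; one replicate is shown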
eIF4H inh retest: second read-out of eIF4H inh, no call of its own (marks repeat the call); inhibition, %; compound at 20 µM; confirmation average;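 mean of two retest wells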
PABP polyA inh retest: further read-out of PABP polyA inh, marked with its call; inhibition, %; compound at 20 µM; confirmation repeats;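 mean of two retest wells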
MT1-MMP act inh RFP: also measured in MT1-MMP act inh; calls as there; RFP signal change, %; measured here: RFP expression control read;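 0 = vehicle wells; hits needed this value within 50% of zero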
The depositor's hits bear a star; i = inactive; ? = inconclusive; / = not tested or not shown; & = joins results of further samples; [ ] = another dose, or the depositor's remark.

SMILES | PABP polyA inh | CSC inhib | MT1-MMP act inh | MT1-MMP act inh RFP | eIF4H inh | Yeast UUG start | Rce1 inh | HIV Env fusion | others
C[C@@H]1CN([C@H](C)CO)C(=O)CCCn2nncc2CO[C@@H]1CN(C)C(=O)c1ccc(N2CCN(C)CC2)cc1 | / | / | 3.8 | 6.5 | / | 0.3&9.1 | / | 8.4[16.7 µM]
CCN(CC)C(=O)c1cccc(-c2csc(C(C)(O)c3ccncc3)n2)c1 (configuration not stated) | / | / | -7.7 | -17.1 | / | -1.8 | / | 14.2
O=C(N/N=C/c1cccc(O)c1)NC1CCCCC1 | -5.1 | -9.9 | 4.6 | -3.0 | -4.0 | / | i | 4.2
COc1ccc(S(=O)(=O)N2CCOC2CNC(=O)C(=O)NCc2ccccn2)cc1 (configuration not stated) | -2.0 | -11.3 | -4.5 | 5.2 | -18.4 | -14.8 | i | -5.0
N#CCCN1C(=O)C2(OCCO2)c2ccccc21 | 9.1 | / | 2.5 | 5.3 | -1.7 | -10.2 | i | -4.4
CCOC(=O)[C@@H]1[C@H]2COc3cc(OC)ccc3[C@@H]2N2C(=O)N(c3cccc(F)c3)C(=O)[C@@]12C | -2.0 | -5.4 | -1.2 | 2.8 | 6.2 | -17.2 | i | 27.8
O=C(c1cc(S(=O)(=O)N2CCOCC2)ccc1Cl)N1CCC(Cc2ccccc2)CC1 | / | -6.8 | 0.3 | -5.3 | / | -15.6 | / | -6.9
CN(CC(=O)NCC(c1ccco1)N1CCCCC1)S(=O)(=O)c1ccc(Cl)cc1 (configuration not stated) | / | -7.2 | 2.5 | 3.5 | / | -1.9 | i | 9.1
CCCNC(=O)c1cnc(-c2ccccc2)nc1-c1ccccc1 | 0.3 | -7.7 | -0.2 | -3.0 | -7.8 | -6.7 | i | -7.8
CCOc1ccc(CCNC(=O)C2CCN(c3nnc(-n4cccc4)s3)CC2)cc1OCC | 4.6 | 18.6 | 4.0 | -1.2 | -5.9 | -9.3 | i | /
COc1ccc(-c2cc(C(=O)N3CCCC3)c3ccccc3n2)cc1 | / | 1.2 | 0.2 | 5.4 | / | -17.1 | i | -13.7
CC(C)C(=O)N1CCN(c2ccccc2NC(=O)c2ccco2)CC1 | 3.0 | -11.8 | -0.9 | 0.8 | -9.9 | 2.4 | i | 18.9
Fc1cccc(Cl)c1-c1nnc2ccc3ccccc3n12 | 7.4 | -5.8 | -9.1 | -18.9 | 1.7 | / | i | 7.8
COc1ccc(S(=O)(=O)N2CCN(C(=O)CCc3c[nH]c4ccccc34)CC2)cc1 | / | / | 2.6 | -3.3 | / | -9.5 | / | -14.9
Cc1cc(C)nc(SCC(=O)N/N=C/c2cc(C)n(-c3ccccc3C)c2C)n1 | 0.5 | -4.6 | 5.0 | -3.2 | 3.8 | 12.4 | i | /
C=CC[C@@H](CC(=O)N[C@H](CO)Cc1ccccc1)C(=O)N[C@@H](COC(=O)[C@H](CC=C)CC(=O)OC(C)(C)C)Cc1ccccc1 | / | -11.3 | 6.6 | -4.4 | / | -7.2 | / | -91.8
Cc1[nH]c2ccccc2c1C(c1ccncc1)N1CCCCC1 (configuration not stated) | 16.6 | 9.6 | 0.8 | -2.0 | -1.5 | / | i | 1.3
CC1CCN(CC(=O)Nc2nccs2)CC1 | 9.6 | -8.9 | -3.4 | -0.9 | 0.4 | -22.8 | i | 4.6
COc1ccccc1CNc1nc(NCc2ccccc2SC)c2sccc2n1 | / | / | 8.6 | -25.1 | / | -6.7 | / | 19.4
O=C(NC1CCCCCCC1)C1CCCN(S(=O)(=O)c2cnc[nH]2)C1 (configuration not stated) | 9.4 | -7.9 | 1.5 | 2.6 | -7.7 | -19.1 | i | -4.8
CCC(=O)N1CCC(C)(C(=O)NCc2cccc(OC)c2)C1 (configuration not stated) | / | / | 2.1 | 6.2 | / | -22.7 | / | 12.7
CCN1CCN(c2ncnc3c2sc(=S)n3-c2ccccc2)CC1 | -4.6 | -2.9 | 4.3 | -3.4 | -13.0 | -23.3 | i | 10.1
O=C1NC(Cc2ccc(O)cc2)c2nc3cc(Cl)ccc3c(=O)n2-c2ncccc21 (configuration not stated) | / | / | -4.8 | 0.3 | / | -7.0 | / | 2.9
COc1cccc(-c2ccc(NC(=O)C3CCCN(Cc4cnc(C)s4)C3)cc2)c1 (configuration not stated) | 0.5 | 32.9 | 6.6 | -7.5 | 6.4 | -13.7 | i | 40.0
Cc1ccc(NC(=O)c2cccnc2)cc1S(=O)(=O)N1CCOCC1 | / | -12.2 | 4.9 | 2.5 | / | -6.7 | i | -0.6
O=C(NCCN1C(=O)CCC1=O)c1ccncc1 | 1.9 | -9.8 | 1.1 | 5.6 | -1.2 | -16.9 | i | /
COc1ccc(C(=O)NCC(=O)N2CCCCC2)cc1OC | -5.3 | -11.1 | -1.6 | 3.6 | -0.3 | / | i | 1.3
COC(=O)C(NC(=O)c1ccc(Cl)cc1)(Nc1nc(C)cs1)C(F)(F)F (configuration not stated) | -0.6 | -4.9 | 0.2 | -0.7 | 0.4 | -18.3 | i | -16.7
O=C1CN(O)C=C2N=c3ccccc3=C2N1c1ccc([N+](=O)[O-])cc1 | 7.5 | 7.1 | 2.0 | 2.7 | -14.9 | 1.3 | i | 7.5
CCOC(=O)C1=CC[C@@H](c2ccccc2)N(S(=O)(=O)c2ccc(C)cc2)[C@H]1c1ccc(C#N)cc1 | / | / | -2.7 | -10.0 | / | 2.3 | / | -1.4
CCOC(=O)CSc1nnc(-c2ccoc2C)n1-c1ccc(C)cc1 | 2.0 | 1.1 | -4.1 | -1.3 | 19.0 | -12.5 | i | 11.4
COc1ccc2oc(C(=O)NC(C)(C)C)c(C)c2c1 | 5.1 | -8.1 | -4.2 | -6.5 | 3.4 | / | i | -28.7
Cn1nnnc1SCC(=O)NC(=O)Cc1ccccc1 | -10.3 | -12.3 | -3.1 | 5.0 | 0.9 | -9.8 | i | 4.0
CC(=O)Nc1ccc(S(=O)(=O)Nc2nc3ccccc3nc2Nc2ccc(S(N)(=O)=O)cc2)cc1 | 1.1 | / | -8.8 | 2.3 | 8.8 | -4.1 | i | -39.4
O=c1[nH]c(C(F)(F)F)nc2ccc3ccccc3c12 | 9.2 | -2.9 | 5.2 | 6.8 | -9.6 | / | i | 3.9
Cc1cc(C)c(S(=O)(=O)N/N=C/c2ccc([N+](=O)[O-])o2)c(C)c1 | 2.6 | -4.9 | 1.3 | 6.0 | -0.4 | -8.0 | i | -6.7
COc1ccc(NS(=O)(=O)c2c(C)[nH]c(=O)[nH]c2=O)c(OC)c1 | 0.0 | -10.7 | 6.6 | 13.1 | 3.5 | -20.4 | i | -44.3
Cc1ccc(NC=C(S(=O)(=O)c2ccccc2)S(=O)(=O)c2ccccc2)c(C)c1 | -3.2 | / | -2.1 | 0.8 | -15.2 | -7.3 | i | /
COc1ccc2nc(Cl)c(C3CC(c4ccco4)=NN3C(=O)CCCC(=O)O)cc2c1 (configuration not stated) | 38.3 | -1.4 | -3.2 | 3.3 | 68.0 | -8.6 | i | 10.4 | eIF4H inh retest=13.7;PABP polyA inh retest=42.1
CCc1ccc(OCC(=O)NCCOc2ccccc2)cc1 | -4.1 | 1.3 | 22.0 | 7.5 | -2.4 | 4.3 | i | -0.8
COc1cccc(C(C)(O)c2nc(-c3ccc(OC)c(OC)c3)cs2)c1 (configuration not stated) | / | / | -2.6 | -15.0 | / | -1.8 | / | 8.4
Cn1c2ccccc2c2nnc(SCc3ccc4nonc4c3)nc21 | 6.5 | -1.4 | -1.1 | -1.9 | 4.7 | -16.7 | i | /
COc1ccc(-c2nn(-c3ccccc3)cc2C(=O)N(C)C)cc1 | 6.2 | -3.5 | -1.9 | -1.5 | 4.8 | -1.5 | i | 13.7
Cc1cc(C)c(NS(=O)(=O)c2ccc(Cl)c(C(=O)O)c2)c(C)c1 | 12.5 | -3.5 | -1.5 | 1.4 | 2.8 | -11.1 | i | /
COc1ccccc1C1=NOC(C(=O)N2CCN(C(=O)c3ccco3)CC2)C1 (configuration not stated) | 11.5 | -10.4 | 0.6 | 0.8 | -1.1 | 4.8 | i | -5.2
N#Cc1c(N)nc(SCC(=O)NC2CCCCC2)c(C#N)c1-c1ccc(Cl)cc1 | 1.4 | -2.9 | 2.2 | -2.0 | -8.5 | -4.4 | i | 10.4
Cc1ccc(NC(=O)Cn2c(O)c(N=NC(N)=S)c3ccccc32)cc1 | -7.9 | 10.0 | 2.9 | -7.5 | -3.6 | -22.9 | i | 8.5
Cc1onc(-c2ccccc2)c1-c1nc2cc(Cl)ccc2c(=O)o1 | 15.2 | 17.8 | 0.3 | 3.5 | 1.6 | -10.6 | i | 5.4
CC(C)C(=O)Nc1cccc(NC(=S)NC(=O)c2ccc3c(c2)OCO3)c1 | -1.1 | -0.8 | / | / | -9.1 | -20.6 | i | -84.1
O=C(CCCc1nc(-c2ccccc2Cl)no1)N1CCOCC1 | -14.1 | 18.9 | -1.0 | -3.3 | 6.7 | / | i | -5.9

(list continues)
SMILES | PABP polyA inh | CSC inhib | MT1-MMP act inh | MT1-MMP act inh RFP | eIF4H inh | Yeast UUG start | Rce1 inh | HIV Env fusion | others
Cc1ccc(C(=O)NC(=S)NCCN2CCOCC2)cc1 | -0.2 | -3.9 | -9.0 | -1.7 | -6.2 | -20.3 | i | -9.2
CC[C@@H](C)[C@@H]1CN([C@@H](CN2CCC[C@H]2CN2C(N)=NC[C@H]2CC(C)C)C(C)C)C(=N)N1CCCC1CCCC1 | / | / | 0.2 | 2.7 | / | 2.0 | / | -14.9
O=C(O)/C=C/C(=O)N1CCN(S(=O)(=O)c2cc(C(F)(F)F)ccc2Cl)CC1 | 69.0* | 0.9 | -14.7 | -1.0 | 2.1* | / | i | -14.2 | eIF4H inh retest=89.3*;PABP polyA inh retest=70.9*
COc1ccc(C(=O)O)cc1S(=O)(=O)NCCN(C)C | 0.5 | -1.1 | -10.6 | 0.8 | -1.1 | -9.2 | i | -2.3
O=C1CCN(C(=S)NCc2ccccc2)CC1 | ? | -15.7 | -2.4 | -0.9 | 0.2 | -21.1 | i | 8.7
CCN(CC)CCNC(=O)CNC(=O)c1nn(-c2ccc(OC)cc2)c(=O)c2ccccc12 | 2.1 | 3.3 | 3.2 | 1.9 | 1.4 | -2.1 | i | -3.1
COc1ccccc1NC(=S)NNC(=O)c1c(Cl)c(C)nn1C | -1.5 | 13.4 | 6.9 | -4.2 | 1.4 | -27.9 | i | -2.3
COC(=O)c1ccc(C(=O)OC)c(NC(=O)CN(C)Cc2ccc(Cl)c(Cl)c2)c1 | -8.0 | 15.1 | -3.6 | 0.1 | 3.4 | / | i | /
CN(C)S(=O)(=O)c1cccc(-c2cn3cc(Cl)ccc3n2)c1 | 7.7 | -2.0 | 4.8 | -7.9 | 2.5 | -5.6 | i | /
COc1ccc(C(C(=O)NCCC(C)C)N(CCO)C(=O)c2snc(C(N)=O)c2N)cc1 (configuration not stated) | -1.6 | 2.4 | 1.4 | 1.9 | -8.9 | -16.9 | i | 12.1
CCOc1ncccc1C(=O)OC(C)C(=O)NC1CCCCC1 (configuration not stated) | / | / | -2.9 | 0.5 | / | -20.3 | / | 1.7
OC1(c2cccc(C(F)(F)F)c2)CCNCC1 | -4.6 | -14.6 | 4.6 | 6.7 | -1.8 | -3.3 | i | -26.2

Screening data (PubChem)

An excerpt; the hit share may differ from the screen's.
